Anaer choline gr = growth inhibitors of anaerobic choline-fed gram-negatives, minimal medium, absorbance; 55,000 compounds, 0.2% hits; calls only; Gram-negative bacterium anaerobic choline minimal medium; hits give low values; many inactives read as strong as hits in the columns shown;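 active = growth z-score on choline under -2 at 7 or 20 h with little or no fall on glycerol, limits in tiers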;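 also: stock transfer was 300 nL into about 50 µL; the organism is E. coli; final concentration not given here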
Anaer choline gr early = further read-out of Anaer choline gr, marked with its call; z-score; measured here: choline growth z-score, timepoint 1;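 score of optical density at 7 h as mean of two plates; lower means less growth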
The depositor's hits bear a star; i = inactive; + = active, no number; & = joins results of further samples. The list is partial. The share of hits here may be higher or lower than overall.

Start of the listing, in advance:
SMILES | Anaer choline gr | Anaer choline gr early
COc1ccc(C2CC(c3ccc(Br)cc3)=NN2C(=O)CSC2=NN3CCCC(=O)N=C3S2)cc1 (stereo unspecified) | i | -0.02
CC(=O)Nc1cccc(NC(=O)c2cc(C(C)C)n(C3CCS(=O)(=O)C3)n2)c1 (stereo unspecified) | i | -0.67
CCOC(=O)C1CCCN(C(=O)C2CCN(c3ncnc4c3sc3ncccc34)CC2)C1 (stereo unspecified) | i | 0.29
C=CCn1c(SCC(=O)Nc2ccc(C)cc2)nc2sc3c(c2c1=O)CCC3 | i | 1

The list itself (from the top)
SMILES | Anaer choline gr | Anaer choline gr early
COc1ccc(C2CC(c3ccc(Br)cc3)=NN2C(=O)CSC2=NN3CCCC(=O)N=C3S2)cc1 (stereo unspecified) | i | -0.02
CC(=O)Nc1cccc(NC(=O)c2cc(C(C)C)n(C3CCS(=O)(=O)C3)n2)c1 (stereo unspecified) | i | -0.67
CCOC(=O)C1CCCN(C(=O)C2CCN(c3ncnc4c3sc3ncccc34)CC2)C1 (stereo unspecified) | i | 0.29
C=CCn1c(SCC(=O)Nc2ccc(C)cc2)nc2sc3c(c2c1=O)CCC3 | i | 1
CCCC(=O)N(c1ccc2oc(C)c(C(=O)OCC)c2c1)S(=O)(=O)c1ccc(CC)cc1 | i | 0.75
Cn1nc(C(=O)Nc2ccc(F)c(Cl)c2)c2c1-c1ccccc1OC2 | i | 0.85
O=C(Cn1ncc2c(N3CCOCC3)ncnc21)NCCC1=CCCCC1 | i | 0.19
CC1CCCCN1c1c(O)c(=O)c1=O (stereo unspecified) | i | -0.06
CCOC(=O)c1[nH]c(C)c(CN(Cc2ccc(C)cc2)C(=O)c2cccnc2)c1C | i | 0.25
CCCCC[C@H](O)/C=C/[C@@H]1[C@@H](C/C=C\CCCC(=O)OC)[C@@H](O)C[C@H]1O | i | -0.21
COc1cc(NS(=O)(=O)c2csc(C(N)=O)c2)cc(OC)c1 | i | 0.08
Cc1cc(O)c(C(=O)c2cnc3cc(-c4ccccc4)nn3c2)cc1Cl | i | -1.6
Cc1nc(-c2cc(S(=O)(=O)Nc3cccc(Cl)c3)c(C)s2)sc1C | i | 0.88
COC(=O)c1c(NC(=O)c2ccc3c(c2)CC(c2ccccc2)OC3=O)sc2c1CCCC2 (stereo unspecified) | i | 0.68
CN(CCO)C(=O)c1nc(-c2ccccc2)n(-c2cccc(Cl)c2)n1 | i | -0.05
CCNC(=O)C1=Cc2cc(Br)ccc2OC1 | i | -0.19
Cc1cc(C2CCCN2Cc2ccc(C)c(C)c2)no1 (stereo unspecified) | i | -0.83
O=C(NCCC1=CCCCC1)C1CCN(c2cncnc2N2CCCC2)CC1 | i | 0.48
CC(C)c1cc(N2CCOCC2)n2nc(-c3cccnc3)nc2n1 | i | -0.98
Cc1ccc(CCNc2nc(C)nc3c(-c4ccc(Cl)cc4)noc23)cc1 | i | -0.36
CN(C1CCCCC1)S(=O)(=O)c1ccc2c(c1)c(=O)c(C(=O)N1CCC(Cc3ccccc3)CC1)cn2C | i | 1.7
Cc1nc2n(c(=O)c1C)CCN2CC(=O)NCc1cccs1 | i | -0.06
CCN1CCN(S(=O)(=O)c2ccc3c(c2)C(C)(C)CN3CC(=O)N2CCCC2)CC1 | i | -0.49
CCOC(=O)c1noc2nc(C)nc(NCCCN3CCN(c4cc(Cl)ccc4C)CC3)c12 | i | -0.34
O=C1COc2ccc(S(=O)(=O)N3CCCC(C(=O)N4CCc5ccccc5C4)C3)cc2N1 (stereo unspecified) | i | 0.21
CCCc1nnc(C(=O)Nc2cccc(C(=O)NCCc3c[nH]c4ccc(C)cc34)c2)s1 | i | 1
O=C(C1CC(=O)N(C2CCCC2)C1)N1CCOCC1 (stereo unspecified) | i | 0.89
CCC(=O)N1CCc2cc(N3CC(C(=O)NC4CC4)CC3=O)ccc21 (stereo unspecified) | i | -0.47
CC(C)C(=O)NCCc1csc(C2CCN(C(=O)C3CCC3)CC2)n1 | i | 0.06
CCN(c1ccccc1)S(=O)(=O)c1ccc2c(c1)CCN2C(=O)CCC(=O)N1CCCC1 | i | 0.2
CCN(CC)S(=O)(=O)c1ccc(-c2nc(C#N)c(N(C)C)o2)cc1 | i | 0.76
O=C(O)c1cc(NS(=O)(=O)c2ccccc2)ccc1N1CCN(c2cccc(Cl)c2)CC1 | i | 0.75
c1cc(-c2nc3c(c(N4CCOCC4)n2)CCC3)ccn1 | i | 0.2
Cc1ccc(-c2nc3sc(CCNC(=O)c4ccccc4Br)c(C)n3n2)cc1 | i | 0.42
CCOc1ccc2c(c1)c(C(=O)N1CCOCC1)c(C)n2-c1ccc(OC)cc1 | i | -0.33
CC(C)C(=O)Nc1nc2cc(NC(=O)C3CCN(S(=O)(=O)N4CCOCC4)CC3)ccc2s1 | i | -0.01
Cc1ccc(C)c(C(=O)Cn2nc3n(CC(C)C)c(=O)c4ccccc4n3c2=O)c1 | i | -0.5
CCS(=O)(=O)N1CCCC1c1ccc(Cl)cc1 (stereo unspecified) | i | -0.46
CCCn1c(=O)c2ccccc2n2c(=O)n(CC(=O)Nc3ccc(C)c(C)c3)nc12 | i | -1
Cn1c(=O)c(=O)n(C)c2cc(Oc3ccccc3)c(NS(=O)(=O)c3cccc4nsnc34)cc21 | i | -0.76
O=C(CN1CCN(c2cccc(Cl)c2)CC1)c1ccc2cc[nH]c2c1 | i | 0.12
CC1(C)C(=O)N(CC(=O)N2CCc3ccccc3C2)c2ccccc21 | i | 0.18
CCc1c(C)sc2c1CCN(C(=O)Nc1cc(OC)ccc1OC)C2c1ccccc1 (stereo unspecified) | i | 1.3
O=S1(=O)C[C@H](NC2CCCCC2)[C@@H](S(=O)(=O)c2cccs2)C1 | i | -1.2
COC(=O)c1cnc(OC)[nH]c1=O | i | -0.39
CCc1ccc(N2C(=O)c3nccnc3C2=O)cc1 | i | -2.5
COc1ccc(NC(=O)C(NS(=O)(=O)c2ccc3c(c2)CCCC(=O)N3)C(C)C)cc1 (stereo unspecified) | i | 0.33
Cc1cc(Cl)ccc1NC(=O)CCC(=O)N1CCCCc2ccccc21 | i | 0.91
CCc1nc(CN2C(=O)COc3ccc(S(=O)(=O)N(CC)CC)cc32)no1 | i | -1.5
Cc1nn(-c2ccccc2)cc1C(=O)N1CCC(CC(=O)NCc2cccnc2)CC1 | i | 0.61
CCCCc1nnc2sc(-c3cccc(N(C)C)c3)nn12 | i | -0.25
O=C(c1cccnc1)N1CCCC1c1ccccc1F (stereo unspecified) | i | -0.49
Cn1nccc1-c1nc(-c2ccc(Oc3ccc(Cl)cc3)cc2)no1 | i | 1.6
CCOC(=O)CNC(=O)CSc1nnc(Cc2cccn2C)n1-c1ccc(OC)cc1 | i | 0.41
Cc1ccc(N2CC(C(=O)Nc3cccc(-c4noc(C5CCC5)n4)c3)CC2=O)cc1 (stereo unspecified) | i | 1.9
CN(Cc1cc(=O)[nH]c2ccccc12)C(=O)Nc1ccc2c(c1)OCO2 | i | -0.19
COc1ccc(Cn2c(CNC(=O)C3CC3)nc3cccnc32)cc1 | i | -1.2
O=C(NCc1ccccc1)c1cccc(N2C(=O)CCS2(=O)=O)c1 | i | -0.31
O=C(Nc1nc(-c2ccccc2)cc(-c2ccccc2)n1)c1ccccc1 | i | 1.8
COc1ccccc1Nc1c2c(nc3ccc(NC(=O)c4ccncc4)cc13)CCCC2 | i | 1.8

Pulled one by one from the list above:
SMILES | Anaer choline gr | Anaer choline gr early
O=S1(=O)C[C@H](NC2CCCCC2)[C@@H](S(=O)(=O)c2cccs2)C1 | i | -1.2
O=C(c1cccnc1)N1CCCC1c1ccccc1F (stereo unspecified) | i | -0.49
CCOC(=O)CNC(=O)CSc1nnc(Cc2cccn2C)n1-c1ccc(OC)cc1 | i | 0.41
O=C(CN1CCN(c2cccc(Cl)c2)CC1)c1ccc2cc[nH]c2c1 | i | 0.12
COc1ccc(NC(=O)C(NS(=O)(=O)c2ccc3c(c2)CCCC(=O)N3)C(C)C)cc1 (stereo unspecified) | i | 0.33
CCCCc1nnc2sc(-c3cccc(N(C)C)c3)nn12 | i | -0.25
Cn1nccc1-c1nc(-c2ccc(Oc3ccc(Cl)cc3)cc2)no1 | i | 1.6

The list continues.
SMILES | Anaer choline gr | Anaer choline gr early
CCc1nc(-c2ccc(C(=O)NCC(=O)Nc3cccc(F)c3)cc2)no1 | i | -0.17
CCC(C)NC(=O)c1cc2cc(S(=O)(=O)N(C)C)ccc2n1Cc1ccncc1 (stereo unspecified) | i | -0.48
CCc1nnc2sc(-c3cc(C)nc4ccc(Cl)cc34)nn12 | i | 0.17
Cn1c(=O)n(C)c2cc(N3CCCC3)c(NC(=O)Nc3ccc4c(c3)OCCO4)cc21 | + | -0.75*
Cc1ccc(NC(=O)C(C)Sc2nc3c(c(=O)[nH]2)CCCC3)c(C)c1 (stereo unspecified) | i | 0.9
CC(=O)N1CCc2cc(C(O)CN3CCN(c4cccc(C)c4C)CC3)ccc21 (stereo unspecified) | i | 0.86
COc1ccc(OC)c(Nc2nc(N(C)C)nc3c2cnn3-c2ccccc2)c1 | i | -0.49
CCCCCOc1ccccc1CN1C(=O)C(=O)c2cccc(C)c21 | i | 1.1
CCc1onc(C)c1C1CCCN1C(=O)Nc1sc2c(c1C(=O)OC)CCCC2 (stereo unspecified) | i | 0.13
CCN(CC)S(=O)(=O)c1ccc2c(c1)N(CC(=O)N1CCCC1)C(=O)CO2 | i | -1.1
CC(=O)Nc1nc(SCCC(=O)O)n[nH]1 | i | -0.19
O=C(c1csc(S(=O)(=O)N2CCC(N3CCCCC3)CC2)c1)N1CCOCC1 | i | 0.11
Cc1ccccc1C(=O)N1CCN(CCc2ccccn2)CC1 | i | -0.55
CN(C(=O)c1ccc(Nc2ccnc(-c3cccc(F)c3)n2)cc1)C1CCCCC1 | i | -0.44
CNC(=O)c1ccc(Cn2c(=O)c3cc(OC)c(OC)cc3n(CC(N)=O)c2=O)cc1 | i | 3.1
COc1ccc(C2=C(C)C(N3CCC(C(=O)NCc4cccnc4)CC3)=NS2(=O)=O)cc1 | i | -0.7
CCn1nccc1C1CCCN1C(=O)Nc1ccc2c(c1)OCO2 (stereo unspecified) | i | -0.16
Cc1nn(-c2ccccc2)c(C)c1CCc1nnc2sc(-c3ccccc3F)nn12 | i | 0.12
CCN1CCN(S(=O)(=O)c2ccc(-c3ccno3)s2)CC1 | i | -0.78
COc1ccc(NC(=O)Nc2ccccc2Sc2cc(C)nc3ncnn23)cc1 | i | 0.52
COc1ccc(N(C(=O)c2ccccc2)S(=O)(=O)c2ccc3c(c2)n(C)c(=O)n3C)cc1 | i | -0.15
COc1ccc(NC(=O)c2nn(C)c3c2CCc2sccc2-3)cc1OC | i | 0.97
CC(=O)NCCCS(=O)(=O)O | i | 0.24&0.55
O=C(NC1CCCCC1)C1CCN(c2ncnc3onc(-c4ccc(F)cc4)c23)CC1 | i | -0.16
COc1ccc2c(c1)c(-n1cccc1)c1n2CC(C)(C(=O)NC2CCCCC2)N(Cc2ccc(Cl)cc2)C1=O (stereo unspecified) | i | -0.08
O=S(=O)(c1ccc2c(c1)CCCC2)N1CCc2nc(N3CCCCC3)ncc2C1 | i | 1.1
CC(C)CCNC(=O)c1cccc(-c2cc(N3CCCC3)ncn2)c1 | i | -0.46
CCN(CC)C(=O)N1CCN(C)CC1 | i | 0.38
CCCn1c(=O)c2ccccc2n2c(=O)n(CC(=O)c3ccc(Br)cc3)nc12 | i | 0.26
O=C(Nc1cnc2sc3ccccc3n2c1=O)c1ccccc1Cl | i | -0.04
O=C(Nc1nc2ccc(F)cc2s1)c1c(-c2ccc(F)cc2)nc2n1CCS2(=O)=O | i | 0
CNC(=O)c1ccc(-c2nc3cc(NS(=O)(=O)c4ccc5c(c4)OCCO5)ccc3n2C)cc1 | i | 0.14
COc1cccc(C(=O)NCC(c2ccccc2)c2c[nH]c3ccccc23)c1 (stereo unspecified) | i | 1.3
Cc1cccn2c(Nc3ccccc3)c(-c3ccc(N4CCOCC4)cc3)nc12 | i | 0.91
Cn1cc(C(=O)Oc2ccc3cnccc3c2)c2ccccc2c1=O | i | 0.99
CCOC(=O)c1c(NC(=O)C2CCN(S(=O)(=O)Cc3ccccc3)CC2)sc2c1CCCC2 | i | 0.99
CCn1cc(C2CC(=O)Nc3c2c(C)nn3-c2nc3ccc(OC)cc3s2)c(C)n1 (stereo unspecified) | i | 2
Cc1cc(C)c(S(=O)(=O)NCCc2csc3nc(-c4ccccc4C)nn23)c(C)c1 | i | -0.02
CCc1ccc(-n2c(=O)c3cccnc3n2CC(=O)Nc2c(C)cc(C)cc2C)cc1 | i | 0.57
O=C(Nc1cnc(N2CCN(c3ccccc3)CC2)c(C(=O)O)c1)c1ccccc1 | i | -0.99
COc1ccccc1NC(=O)NCc1ccnc(N2CCCCC2)c1 | + | -1.1*
COc1ccccc1Oc1cc(-c2cccc(C(=O)Nc3cccc(F)c3)c2)ncn1 | i | -0.32
Cc1cccc(COc2ccccc2C2CC(=O)Nc3c2c(C)nn3-c2ccc3nncn3n2)c1 (stereo unspecified) | i | -0.05
CC(C)Cc1nnc(C(=O)Nc2cccc(C(=O)NCCc3c[nH]c4ccccc34)c2)s1 | i | 1.3
CCOC(=O)c1cccc(NC(=O)C2CCCN(c3cnc4ccccc4n3)C2)c1 (stereo unspecified) | i | -0.39
CCc1cccc(C)c1NC(=O)CN1N=NC2C(=O)N(c3ccc(F)c(F)c3)C(=O)C21 (stereo unspecified) | i | 0.59
CCc1cccc(-n2nnnc2N2CCN(C(=O)Nc3cccc(C)c3)CC2)c1 | i | -4.9
CCCc1cc(C2CCCN2Cc2ccc(OCC)cc2)no1 (stereo unspecified) | i | -0.02
CC1CCCN(S(=O)(=O)c2cc(C(=O)NC3CCCC3)n(C)c2)C1 (stereo unspecified) | i | -1
O=C(NC1CCCC1)c1ccc2c(=O)n(-c3ccc(F)cc3)c(SCC(=O)c3c[nH]c4ccccc34)nc2c1 | i | 2.5

Source: PubChem
